# NPYLR7 ag: mosquito NPYLR7 agonism. HEK293T NPYLR7/Galpha15, GCaMP6s calcium fluorescence. activation, % at 10 µM. actives 0.15% (n = 270,000); in the data active means activation above about 40%;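 further: 0% = vehicle and 100% = reference agonist at the receptor; some compounds past the cut are filed as inactive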
# NPYLR7 ag max-min: recorded beside NPYLR7 ag, whose call it bears; activation, %; measured here: Max-Min RFU normalised activation; some inactives read as strong as hits;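 span of the calcium signal over five minutes; 0% = vehicle and 100% = native peptide agonist; compound fluorescence can raise it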
# * marks the source's active call; other numbers are inactive results; & = joins results of further samples.
Molecule	NPYLR7 ag max-min	NPYLR7 ag
COc1cn(-c2ccccc2)nc1C(=O)Nc1ccc(C)c(Cl)c1	16	2
O=C(c1cn2ccccc2n1)N1CCc2[nH]nc(-c3ccccc3F)c2C1	3	6
CC(C)(C)NC(=O)c1cc(-c2ccc(F)cc2)nc2cc(C(C)(C)C)nn12	7	-2
CN(CCC(=O)NC(N)=O)Cc1ccc(OC(F)(F)F)cc1	9	10
Cc1ccc(Nc2ccc(NC(=O)c3ccccc3)c3c2C(=O)c2ccccc2C3=O)cc1	-8	-4
COc1ccccc1/C=C/C=C1N=C(/C=C/c2ccc(C)cc2)OC\1=O	1	7
CN(C)CCN1CCN(c2cc(-c3cccc(Cl)c3)nc3ccnn23)CC1	-1	7
Cc1nccn1CCC(=O)N1CCc2c(cc(-c3ccccc3F)c(=O)n2Cc2ccncc2)C1	13	22

# The results go on:
Molecule	NPYLR7 ag max-min	NPYLR7 ag
COc1ccc(N=Nc2c(C)[nH]n(-c3nc(-c4ccc(Cl)cc4)cs3)c2=O)c([N+](=O)[O-])c1	12	22
c1ccc(-c2[nH]ncc2-c2ccnc3ccccc23)nc1	-3&-5	-4&-3
CC1=NC(=S)C(=P(c2ccccc2)(c2ccccc2)c2ccccc2)C(=O)N1	0	2
O=C(NC1CCN(c2ccccc2C(=O)N2CCc3ccccc3C2)CC1)c1ccc(F)cc1	17	21
O=C(CNC(=O)c1cc(F)ccc1F)Nc1ccccc1Br	13	18
COC(=O)c1c(C)oc2ccc(OCC(=O)c3ccc(F)cc3)cc12	-9	-1
O=C(NCCCn1cccn1)[C@H]1c2ccccc2C(=O)N(CCc2ccccc2)[C@H]1c1ccccc1[N+](=O)[O-]	-11	-5
Cc1nnc(SCC(=O)N2CCCC(C(=O)c3cc(F)ccc3F)C2)s1 (stereo not given)	2	0

# (cont.)
Molecule	NPYLR7 ag max-min	NPYLR7 ag
CN1C(=O)NC(c2ccc(C(C)(C)C)cc2)C2=C1CN(CC(=O)NC1CCCc3ccccc31)C2=O (stereo not given)	2	-1
CCn1cc(CC(=O)N2CCC(O)(C(F)(F)F)C2)c2ccccc21 (stereo not given)	-6	-6
CCCC(O)CN(Cc1ccc(F)cc1)Cc1ccc2c(c1)OCO2 (stereo not given)	2	-4
CC1CN(CC(=O)NC2CCOCC2)c2ccccc2S1 (stereo not given)	-1	-1
O=C(CN1CCN(Cc2ccc(Cl)s2)CC1)N1CCNC1=O	3	-4
CCCOc1ccc(-c2cccc(NS(=O)(=O)c3ccc(F)cc3)c2)nn1	-5	-11
CC(C)CN(CC(C)C)C(=O)CSc1nnc(-c2ccncc2)n1-c1ccccc1	11	3
CN(CCC1CCCCO1)C(=O)CCc1nnc(CCc2ccccc2)o1 (stereo not given)	0	2

# Further records follow.
Molecule	NPYLR7 ag max-min	NPYLR7 ag
Cc1cc(C)n(-c2nc(C)c(C)c(=O)n2CC(=O)N2CCc3ccccc32)n1	7	0
Clc1cc(Cl)c(N=Cc2ccccn2)cc1Cl	-8	-6
CCCc1nnc(-c2cc3ccccc3n2CC(=O)Nc2ccccc2OCC)o1	2	4
CC1CN(C2CCCCC2)c2nc3c(c(=O)n(CCN4CCOCC4)c(=O)n3C)n2C1 (stereo not given)	3	10
COc1cc(/C=C\C(=O)NCc2cc(-c3cc4ccccc4o3)on2)cc(OC)c1OC	0	1
Cc1cc2c(cc1S(=O)(=O)N1CCCc3cc(Br)ccc31)NC(=O)CO2	-10	-7
COc1ccc(N2CCN(C(=O)C3CC=CCC3C(=O)Nc3ccccc3OC)CC2)cc1 (stereo not given)	-9	-3
O=C(NS(=O)(=O)c1ccc(Cl)s1)c1ccco1	-4	-3

# An excerpt of these results, with each value named:
Molecule: Cc1cc2c(cc1S(=O)(=O)N1CCCc3cc(Br)ccc31)NC(=O)CO2
  NPYLR7 ag max-min = -10
  NPYLR7 ag = -7

Molecule: CCCc1nnc(-c2cc3ccccc3n2CC(=O)Nc2ccccc2OCC)o1
  NPYLR7 ag max-min = 2
  NPYLR7 ag = 4

Molecule: COc1ccc(N2CCN(C(=O)C3CC=CCC3C(=O)Nc3ccccc3OC)CC2)cc1 (stereo not given)
  NPYLR7 ag max-min = -9
  NPYLR7 ag = -3

Molecule: Cc1cc(C)n(-c2nc(C)c(C)c(=O)n2CC(=O)N2CCc3ccccc32)n1
  NPYLR7 ag max-min = 7
  NPYLR7 ag = 0

# New compounds follow:
Molecule	NPYLR7 ag max-min	NPYLR7 ag
CCN1CCOc2ccc(NC(=O)c3cc(OC)cc(OC)c3)cc2C1=O	6	11
CC(C)Oc1nc(-c2cccc(F)c2)n(-c2ccc(NC(=O)COc3ccccc3)cc2)n1	-5	-7
CCOC(=O)c1c(CN2CCCC2)n(-c2ccccc2)c2cc(Br)c(O)cc12	-22	-15
CN(CC(=O)Nc1c(Cl)cccc1Cl)Cc1nc2scc(-c3ccccc3)c2c(=O)[nH]1	-6	1
S=c1[nH]nc(COc2ccc(Cl)cc2)n1-c1ccccc1	-9	-4
Cc1cc(C(=O)N2CCC3(CCCN(CCCc4ccccc4)C3=O)C2)n[nH]1 (stereo not given)	6	13
Cc1c(C)n2c3c(=O)n(Cc4cccc5ccccc45)c(=O)n(C)c3nc2n1CCN1CCOCC1	9	-1
CCCCn1c(C(=O)Nc2cccnc2)cc2c(=O)n(C)c(=O)n(C)c21	-4	-3

# Complete entries, looked up by structure:
# Shown for `CCn1cc(CC(=O)N2CCC(O)(C(F)(F)F)C2)c2ccccc21` (stereo not given) : NPYLR7 ag max-min: -6; NPYLR7 ag: -6
# Shown for `Cc1c(C)n2c3c(=O)n(Cc4cccc5ccccc45)c(=O)n(C)c3nc2n1CCN1CCOCC1` : NPYLR7 ag max-min: 9; NPYLR7 ag: -1

# Next part.
Molecule	NPYLR7 ag max-min	NPYLR7 ag
COc1ccc(C(F)(F)F)cc1NC(=O)CSc1nc(=O)n(N2CCN(C)CC2)c2c1CCC2	-7	-4
O=C(CN1CCCC1c1cccs1)NN1C(=O)NC2(CCCCC2)C1=O (stereo not given)	1	2
C=CCCC(O)CN(Cc1ccc(F)cc1)CC1CC(c2ccccc2)=NO1 (stereo not given)	-2	-2
Oc1c(Cl)cc(Cl)c2ccc(N/N=C\c3ccc(Br)s3)nc12	-10	-5
Cc1ccc(-n2ccn(CN(C)CC(=O)NC(C)(C)C)c2=S)c(C)c1	4	10
Oc1c(Cl)cc(Cl)cc1C=NC1CC1	34	33
CCc1nc2c(OCCc3cccc(OC)c3)cccn2c1N(C)C(=O)c1ccco1	1	12
C(=Cc1nc2c(ccc3ccccc32)s1)c1ccc2c(c1)OCCO2	15	17

# (next part)
Molecule	NPYLR7 ag max-min	NPYLR7 ag
Cc1ccccc1C1SCC(=O)N1CC(=O)N1CCCC1 (stereo not given)	15	16
O=S(=O)(NCc1ccccc1)N1CCCC1c1ccccn1 (stereo not given)	9	11
Cc1cc(C)cc(-n2c(SCC(=O)Nc3nnc(C)s3)nc3c([nH]c4ccccc43)c2=O)c1	41	0
C#Cc1ccc(NC(=O)C2(C)CCN2C(=O)c2sccc2C)cc1 (stereo not given)	1	5
CC1CC(C)CN(CC(=O)N2CCN(S(=O)(=O)c3ccc(Cl)cc3)CC2)C1 (stereo not given)	0	-3
O=C1C2CCCC1CC(C(=O)N1CCCCC1)C2 (stereo not given)	-3	-1
CSc1nccc(NCC(O)c2nccn2C)n1 (stereo not given)	3	5
Cn1cc(C(=O)NCC2CCCO2)c2nn(-c3ccccc3)c(=O)c-2c1 (stereo not given)	7	8

# (further entries)
Molecule	NPYLR7 ag max-min	NPYLR7 ag
CCOC(=O)C1CCCN(C(=O)c2cc(-c3ccc(OC)cc3)n(-c3cccc(OC)c3)c2C)C1 (stereo not given)	0	-3
CCNC(=O)O[C@H]1[C@H](NC(=O)c2ccccc2OCC)[C@H]2O[C@@H]1c1ccccc12	11	-1
COc1ccc(C(=O)Oc2cc(C(C)C)ccc2C)cc1S(=O)(=O)N1CCOCC1	1	5
NS(=O)(=O)c1cccc(S(=O)(=O)Nc2ccc(OCC(F)(F)F)cc2)c1	10	11
O=C(c1cn[nH]n1)N1CCC(Nc2ccccn2)CC1	5	7
O=C(CN1CCOC1=O)N1CCCC(N2CCN(c3cccc(C(F)(F)F)c3)CC2)C1 (stereo not given)	6&-4	21&0
Cc1nc(CCNC(=O)c2cc3n(n2)CCCNC3)nc2c1CCC2	8	13
COc1cc(CN(C)CC2CCN(CCc3cccc(F)c3)CC2)cc(Cl)c1O	-4	-2

# Following part.
Molecule	NPYLR7 ag max-min	NPYLR7 ag
CCn1cnnc1CN(C)c1ccc(-c2nc(COc3ccccc3)no2)cn1	6	18
CC(C)c1noc(-c2ccc(N3CCNC(=O)CC3)nc2)n1	1	21
CCCCCn1cc(C2CCN(S(=O)(=O)c3ccccc3S(C)(=O)=O)CC2)c2ccccc21	1	2
COc1cccc(CNc2ncnc3c2cnn3-c2ccccc2)c1	8	17
CN(Cc1ncc[nH]1)c1ccc(C(=O)N2CCC(CCc3ccccc3)CC2)cn1	9	16
O=S(=O)(c1ccc(Cl)cc1)N1CCn2c1nc1ccccc12	-1	0
COCc1cccc(C(=O)Nc2nc3cc4c(cc3s2)OCCO4)c1	4	4
Cn1cnnc1Sc1c([N+](=O)[O-])ncn1C	-20	-16

# Next section.
Molecule	NPYLR7 ag max-min	NPYLR7 ag
O=C(CC(NCCO)C(=O)O)Nc1ccccc1 (stereo not given)	0	1
O=C(O)C1COC2(CCN(C(=O)Cc3ccccc3)CC2)N1C(=O)c1ccco1 (stereo not given)	16	12
O=C1CC2(CCN(Cc3ccc(-n4cccn4)cc3)CC2)CN1	9	23
CCc1nc2n(n1)C(=O)C(C(c1cccc(Br)c1)N1CCN(CC)CC1)S2 (stereo not given)	4	9
Cc1nccn1-c1ccc(NC(=O)C2CCCN(Cc3ccon3)C2)cc1 (stereo not given)	-3&-9	1&-10
CCc1ccc(CN2CCC(N3CCCC(C(=O)N4CCCC4)C3)CC2)o1 (stereo not given)	3	5
CCCOCCCNC(=O)c1ccc(-n2nc(C(=O)OCC)cc2CCC(C)C)cc1	-6	-1
Cc1cccc2nc(CNc3ccccc3C(=O)NCc3ccccc3)cc(=O)n12	4	12

# Additional records follow.
Molecule	NPYLR7 ag max-min	NPYLR7 ag
Cc1nc(CCNC(=O)c2[nH]nc(N)c2-c2ccccc2)sc1C	-9	-6
c1ccc(CSc2nnc3sc4ccccc4n23)cc1	0	0
CN(C)C(=O)c1cncn1-c1cccc(-c2ccccc2C(F)(F)F)c1	-13	0
CCN(Cc1ccccc1)C(=O)/C=C/c1c(C)nn(C)c1C	4	10
NC(=O)CN1CCCC(NC(=O)c2ccc(-c3ccccc3Cl)o2)C1 (stereo not given)	290	-4
Cc1noc(C)c1S(=O)(=O)N1CCOC(CC2CCCCC2)C1 (stereo not given)	-1	1
CC1(C(=O)NC2CCN(Cc3ccccc3)CC2)CCN1Cc1ccc(-c2ccccc2)o1 (stereo not given)	2	7
O=C1CCNC(=S)N1Cc1ccccc1CN1CCCCC1	3	5

# Other records.
Molecule	NPYLR7 ag max-min	NPYLR7 ag
O=C(NCC1(c2ccccc2)CC1)N1CCC2(CCOC2)C1 (stereo not given)	0	2
COC(=O)c1ccc(NC(=O)CSc2cn(CC(=O)N3CCOCC3)c3ccccc23)cc1	-11	-7
CCOC(=O)c1cc(-c2ccccc2)n(CCOC)c1C	-16	-12
CCCCS(=O)(=O)N(C)C(=O)/C=C/c1cccc(Cl)c1	0	1
O=S(=O)(NCCCN1CCOCC1)c1c(Cl)nc2sccn12	9	14
O=c1n(CCCOc2ccccc2)nnn1-c1cccs1	2	2
COc1ccc(OC)c(S(=O)(=O)Nc2ccc(-c3ccc(N4CCC(C)CC4)nn3)cc2)c1	-3	0
Cc1cc(Br)cnc1NC(=O)Cn1nc(C(F)(F)F)cc1C	8	11

# (continued)
Molecule	NPYLR7 ag max-min	NPYLR7 ag
CC(C)n1nc(C(=O)NNS(=O)(=O)c2ccc(Cl)cc2)c2ccccc2c1=O	-1	1
CCOC(=O)C1=C(COC(=O)c2cc3c(s2)CCC3)NC(=O)NC1c1cccs1 (stereo not given)	4	5
O=C(Nc1nc2nc(-c3cccs3)cc(C(F)(F)F)c2s1)C1CCC1	2	6
O=S(=O)(Nc1ccc(Nc2cc(-n3ccnc3)ncn2)cc1)c1ccc(C(F)(F)F)cc1	-12	-12
COC(=O)c1cc(C(=O)OC)cc(N2C(=O)CSC2c2c(F)cccc2Cl)c1 (stereo not given)	-11	-5
COCCCN(CC(=O)N1CCc2sccc2C1COc1cccc(OC)c1)C(=O)c1cccc(Cl)c1 (stereo not given)	3	-3
OCCC1CCCN(CCCCCn2nnc(-c3ccccc3)n2)C1 (stereo not given)	1	2
CC(C)CCN(C(=O)CSc1nccn1C(C)C)c1c(N)n(Cc2ccccc2)c(=O)[nH]c1=O	4	5

# Additional entries follow:
Molecule	NPYLR7 ag max-min	NPYLR7 ag
CCOC(=O)N1CCC2(CC1)[C@H](C(=O)Nc1ccccc1)[C@@H](OC(N)=O)C(=O)N2C	18	22
COc1ccc(N2CCN(C(=O)c3ccccc3F)C(C)C2=O)cc1OC (stereo not given)	0	-8
COc1ccc2[nH]c(CNC(=O)c3ccc(=O)[nH]c3)cc2c1	-4	2
N#Cc1c(N)nc2c(c1-c1ccncc1)CCCC2	4	7
CN(C)c1ccc(-c2ccnc3c2CC(C)(C(=O)Nc2ccccc2)O3)cc1 (stereo not given)	10	4
CCCCN(Cc1cccn1Cc1ccc(Br)cc1)C(=O)CN(CCCOC)C(=O)c1cccc(F)c1	-6	-7
CC1C(=O)N(c2ccc(Br)cc2)CCN1C(=O)c1cccc(F)c1 (stereo not given)	0	-3
NCCOB(c1ccccc1)c1ccccc1	12&-21	27&-16

# Remaining list, next part.
Molecule	NPYLR7 ag max-min	NPYLR7 ag
CCCNC(=O)Cn1nc2c(c1NC(=O)Cc1ccc(F)cc1)CSC2	-16	-9
NCC1COc2ccccc2C1 (stereo not given)	13	3
CC1Sc2ccc(C#N)cc2N(Cc2cccc(C(F)(F)F)c2)C1=O (stereo not given)	-8	-8
c1ccc(-c2noc(C3CCN(Cc4cc5n(n4)CCNC5)CC3)n2)cc1	17	17
COCCN1CCCC2(CCN(C(=O)Cn3nc4ccccc4n3)C2)C1=O (stereo not given)	4	11
COC(=O)[C@@H](CCSC)NC(=O)c1c(-n2cnnn2)sc2c1CCC2	41	2
Cc1ccc(F)c(C(=O)N2CCCN(C)C3(CCN(C)CC3)C2)c1Cl	0	6

# A portion of the library. The share of hits here may be higher or lower than overall.
